# Screens deposited in PubChem BioAssay by Broad Institute.
# MLL AF4-AF9 inh = inhibitors of AF4 peptide binding to AF9, primary screen, biochemical, AlphaScreen, biotin-AF4 peptide, FLAG-AF9, single point. inhibition, % at 10 µM. AID 651704, 2012. hit rate 0.47% among 350,000. Protein AF-9 (Homo sapiens), P42568;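 active = every replicate reaching a set inhibition limit, whatever the replicate mean, cut at about 25% in these data; inconclusive = mean inhibition reaches that limit but some replicates miss it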;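 also: 0% = plate neutral control median and 100% = total signal loss; the record names both 10 and 1 µM as test concentration; the first replicate is given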
# Target sequence (P42568 whole entry, looked up): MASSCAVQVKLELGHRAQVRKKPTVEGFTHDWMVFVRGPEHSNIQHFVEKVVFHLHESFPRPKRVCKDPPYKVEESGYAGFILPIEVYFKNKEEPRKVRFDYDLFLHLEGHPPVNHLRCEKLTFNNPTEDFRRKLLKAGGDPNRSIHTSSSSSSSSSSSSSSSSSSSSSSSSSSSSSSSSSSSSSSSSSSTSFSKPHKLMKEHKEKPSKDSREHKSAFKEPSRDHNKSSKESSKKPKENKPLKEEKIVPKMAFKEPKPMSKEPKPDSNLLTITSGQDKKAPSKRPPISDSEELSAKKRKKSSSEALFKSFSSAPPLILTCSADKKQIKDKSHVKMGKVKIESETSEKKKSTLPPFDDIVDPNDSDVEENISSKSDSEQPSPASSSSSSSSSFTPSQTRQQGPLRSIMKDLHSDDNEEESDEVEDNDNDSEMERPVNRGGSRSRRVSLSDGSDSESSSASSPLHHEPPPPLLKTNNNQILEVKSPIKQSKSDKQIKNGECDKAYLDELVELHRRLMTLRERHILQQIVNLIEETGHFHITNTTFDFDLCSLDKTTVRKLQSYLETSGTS
# ALR inh = inhibitors of human ALR sulfhydryl oxidase, primary screen, biochemical, H2O2 detection, HRP-luminol luminescence, single point. hit rate 3.8% among 290,000. purified ALR, DTT oxidation. FAD-linked sulfhydryl oxidase ALR (Homo sapiens), P55789. inhibition, % (test concentration not listed);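 active = mean and each replicate at 75% or more; inconclusive = only one of the two met; inactive = neither met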;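 also: stock transfer was 7.5 nL into about 7.5 µL; 0% = neutral wells and 100% = wells with inactivated enzyme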
# Target sequence (P55789 whole entry, looked up): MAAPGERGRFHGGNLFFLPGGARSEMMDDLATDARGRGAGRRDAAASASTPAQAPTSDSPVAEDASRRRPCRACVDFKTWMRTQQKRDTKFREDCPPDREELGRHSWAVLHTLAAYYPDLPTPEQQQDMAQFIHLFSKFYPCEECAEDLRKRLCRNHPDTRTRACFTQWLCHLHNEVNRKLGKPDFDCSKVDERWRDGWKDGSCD
# FGF22 binding = binders of human FGF22 protein, primary screen, FGF22 synaptogenesis inhibitor project, biophysical, thermal shift, single point; Fibroblast growth factor 22 (Homo sapiens), Q9HCT0; recombinant FGF22 thermal shift, SYPRO orange fluorescence; percent of sucrose octasulfate shift, DMSO zero; calls only at 9.99 µM; hit rate 1.5% among 340,000;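 active = melting point raised past a set limit in the mean and every replicate; inconclusive = no clear call; three in four hits are not shown here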
# rRNA inh HTS = reduced GFP signal of wild-type E. coli, primary screen, bacterial rRNA inhibitor project, GFP/RFP fluorescence, OD600, single point; E. coli WT GFP vs humanized-ribosome RFP mutants, 24 h; hits give low values; DMSO median 0, no signal -100; GFP signal change (wild-type ribosome), % (concentration not given with the values); hit rate 1.6% among 350,000; AID 720706, 2013;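 active = significant combined selectivity score with lowered wild-type GFP, culture density cut under 30%, mutant RFP and density less affected; inactive = any of these conditions unmet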; also: one replicate is shown; some compounds called inactive have numbers as strong as hits
# RanGTP-Impb inh = inhibitors of RanGTP-importin-beta interaction, primary screen, biochemical, FRET, CFP-Ran, YFP-importin-beta, homogeneous. Ran GTPase (GTP-bound) - importin-beta complex. hit rate 1.1% among 300,000. inhibition, % (test concentration not listed). cell-free CFP-Ran/YFP-importin-beta FRET ratio;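 active = most replicates above 15%; inconclusive = exactly half above 15%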;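 also: 0% = DMSO wells and 100% = Ran loaded with GDP instead of GTP; wells of about 40 µL received 100 nL stock; the first replicate is given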
# Beta apoptosis = inhibitors of cytokine-induced beta cell apoptosis, primary screen, luminescence. INS-1E cytokine-induced death, ATP luminescence, 48 h; percent of positive-control rescue, neutral wells zero. protection from apoptosis, % (test concentration not listed). hit rate 0.8% among 300,000. AID 435005, 2010;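 active = all replicates at 75% or more, or half of them and the mean; inconclusive = half reach 75% but not the mean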;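 also: 0% = cytokine-treated negative control wells and 100% = positive control rescue; higher means more ATP so stronger rescue from cytokine killing; wells of about 40 µL received 100 nL stock; the first replicate is given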
# Calb FLC = C. albicans growth inhibition with fluconazole, primary screen, CaCi-2 strain, Alamar Blue fluorescence; hit rate 0.57% among 300,000; AID 1979, 2009; growth inhibition, % (concentration not given with the values); C. albicans CaCi-2 (fluconazole-resistant clinical isolate) + fluconazole, 48 h;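 active = most replicates above 75%; inconclusive = exactly half above 75%; inactive = most below 75%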;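 also: all wells also contain fluconazole at 8 µg/ml as a sub-toxic cotreatment; 0% = median of DMSO wells and 100% = median of geldanamycin control wells; wells of about 8 µL received 7.5 nL stock; the first replicate is given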
# T cruzi inh = inhibitors of intracellular T. cruzi growth, primary screen, luminescence, NIH3T3 host cells | T. cruzi beta-gal in NIH3T3, 90 h | hit rate 1.4% among 300,000 | inhibition, % (test concentration not listed);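 active = mean inhibition across valid replicates above about 55%, limit read from the data; inconclusive = mean below that limit but half or more replicates reach it; inactive = mean below it, under half of replicates reach it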;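 also: signal also drops with host cell toxicity which is not excluded here; 0% = plate median of DMSO wells and 100% = zero luminescence signal; higher percent means less beta-gal luminescence so fewer parasites; stock transfer was 50 nL into about 50 µL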
# rRNA inh HTS OD600 = recorded beside rRNA inh HTS, whose call it bears; OD600 change, %; measured here: OD600 growth;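 optical density of the mix in the first replicate; 0 = DMSO median and -100 = no signal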
# rRNA inh HTS RFP = second read-out of rRNA inh HTS, no call of its own (marks repeat the call); RFP signal change, %; measured here: RFP humanized mutant strains;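 first replicate; 0 = DMSO median and -100 = no signal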
# Active calls of the source: *; i = inactive; ? = inconclusive; / = no result given.
# Order of values: T cruzi inh | Calb FLC | rRNA inh HTS | Beta apoptosis | rRNA inh HTS OD600 | FGF22 binding | rRNA inh HTS RFP | RanGTP-Impb inh | ALR inh | MLL AF4-AF9 inh
COc1ccc(N2CCN(CCCNC(=S)Nc3c(C)cccc3C)CC2)cc1
 : 15 | -8 | 0 | -1 | 8 | i | -4.3 | -2.2 | 55 | 43*
COc1ccc(OCC(=O)NCc2ccc(Cl)cc2)cc1
 : -6 | -3 | 6 | -10 | 5 | i | 1.0 | 0.8 | -7 | 0.9
CCc1nnc(NC(=O)CSc2nnc(C3CCCCC3)n2-c2cccc(Cl)c2)s1
 : 46 | 9 | / | -2 | / | / | / | -0.1 | -6 | /
O=C(Nc1ccc(S(=O)(=O)Nc2nccs2)cc1)c1ccc(=O)[nH]c1
 : -9 | -18 | / | -7 | / | / | / | -4.1 | -28 | /
CCOC(=O)c1ccc(NC(=S)Nc2cccc(N)n2)cc1
 : 2 | -5 | -5 | 2 | 0 | i | 0.0 | ? | -2 | 1.2
CCOC(=O)c1cc(-c2ccccc2C)n(CC2CC(c3cccc([N+](=O)[O-])c3)=NO2)n1 (centres undefined)
 : / | / | -4 | -5 | 3 | i | -0.1 | / | -7 | 7.5
CCOC(=O)c1c(-c2cccs2)csc1NC(=O)c1ccco1
 : -2 | 8 | / | 3 | / | / | / | -0.1 | -9 | /
CCc1ccccc1NC(=O)C1CCN(c2cnccn2)CC1
 : 7 | -3 | 3 | / | 4 | i | -3.3 | 3.7 | -14 | -3.0
Cc1ccc(NC(=O)Nc2cnccn2)cc1C
 : -1 | -8 | -6 | 2 | 4 | i | -2.4 | -2.6 | 5 | 0.2
Cc1ccc(-c2nnn(CC(=O)O)n2)cc1
 : -5 | 2 | / | 5 | / | / | / | 3.1 | -2 | /
O=c1oc(-c2ccccc2)nc2sc3c(c12)CCC3
 : -19 | 7 | 1 | 2 | -3 | i | -1.3 | 1.3 | 52 | 5.2
O=C(/C=C/c1ccccc1)NC(NC(=S)Nc1ccc(Cl)cc1Cl)C(Cl)(Cl)Cl (centres undefined)
 : 78* | -28 | / | 27 | / | / | / | -1.2 | -12 | /
O=C(Nc1ccc(C(=O)O)cc1)/C(=C/c1ccc([N+](=O)[O-])cc1)NC(=O)c1ccccc1
 : -1 | 0 | -3 | -9 | -3 | i | 2.8 | 0.6 | -8 | 0.2
c1ccc(-c2noc(CSc3nnnn3-c3ccccc3)n2)cc1
 : 7 | 0 | -9 | 32 | -23 | i | -2.2 | 6.2 | 1 | -3.7
O=C(/C=C/c1ccccc1)NCCSCc1ccc(Cl)cc1
 : 13 | -27 | / | -2 | / | / | / | 0.3 | / | /

# Sorted by molar mass (low to high): part of the list above
# Order of values: T cruzi inh | Calb FLC | rRNA inh HTS | Beta apoptosis | rRNA inh HTS OD600 | FGF22 binding | rRNA inh HTS RFP | RanGTP-Impb inh | ALR inh | MLL AF4-AF9 inh
Cc1ccc(-c2nnn(CC(=O)O)n2)cc1
 : -5 | 2 | / | 5 | / | / | / | 3.1 | -2 | /
Cc1ccc(NC(=O)Nc2cnccn2)cc1C
 : -1 | -8 | -6 | 2 | 4 | i | -2.4 | -2.6 | 5 | 0.2
O=c1oc(-c2ccccc2)nc2sc3c(c12)CCC3
 : -19 | 7 | 1 | 2 | -3 | i | -1.3 | 1.3 | 52 | 5.2
COc1ccc(OCC(=O)NCc2ccc(Cl)cc2)cc1
 : -6 | -3 | 6 | -10 | 5 | i | 1.0 | 0.8 | -7 | 0.9
CCc1ccccc1NC(=O)C1CCN(c2cnccn2)CC1
 : 7 | -3 | 3 | / | 4 | i | -3.3 | 3.7 | -14 | -3.0
CCOC(=O)c1ccc(NC(=S)Nc2cccc(N)n2)cc1
 : 2 | -5 | -5 | 2 | 0 | i | 0.0 | ? | -2 | 1.2
O=C(/C=C/c1ccccc1)NCCSCc1ccc(Cl)cc1
 : 13 | -27 | / | -2 | / | / | / | 0.3 | / | /
c1ccc(-c2noc(CSc3nnnn3-c3ccccc3)n2)cc1
 : 7 | 0 | -9 | 32 | -23 | i | -2.2 | 6.2 | 1 | -3.7
CCOC(=O)c1c(-c2cccs2)csc1NC(=O)c1ccco1
 : -2 | 8 | / | 3 | / | / | / | -0.1 | -9 | /
O=C(Nc1ccc(S(=O)(=O)Nc2nccs2)cc1)c1ccc(=O)[nH]c1
 : -9 | -18 | / | -7 | / | / | / | -4.1 | -28 | /
COc1ccc(N2CCN(CCCNC(=S)Nc3c(C)cccc3C)CC2)cc1
 : 15 | -8 | 0 | -1 | 8 | i | -4.3 | -2.2 | 55 | 43*
O=C(Nc1ccc(C(=O)O)cc1)/C(=C/c1ccc([N+](=O)[O-])cc1)NC(=O)c1ccccc1
 : -1 | 0 | -3 | -9 | -3 | i | 2.8 | 0.6 | -8 | 0.2
CCOC(=O)c1cc(-c2ccccc2C)n(CC2CC(c3cccc([N+](=O)[O-])c3)=NO2)n1 (centres undefined)
 : / | / | -4 | -5 | 3 | i | -0.1 | / | -7 | 7.5
CCc1nnc(NC(=O)CSc2nnc(C3CCCCC3)n2-c2cccc(Cl)c2)s1
 : 46 | 9 | / | -2 | / | / | / | -0.1 | -6 | /
O=C(/C=C/c1ccccc1)NC(NC(=S)Nc1ccc(Cl)cc1Cl)C(Cl)(Cl)Cl (centres undefined)
 : 78* | -28 | / | 27 | / | / | / | -1.2 | -12 | /

# The list goes on:
# Order of values: T cruzi inh | Calb FLC | rRNA inh HTS | Beta apoptosis | rRNA inh HTS OD600 | FGF22 binding | rRNA inh HTS RFP | RanGTP-Impb inh | ALR inh | MLL AF4-AF9 inh
COc1ccc(Cl)cc1C(=O)NCCS(=O)(=O)N1CCN(c2ccccc2F)CC1
 : -10 | 3 | -16 | -2 | -23 | i | 2.2 | 0.6 | 1 | -1.8
CCOC(=O)CCSc1nc(-c2ccccc2)cc(C(F)(F)F)n1
 : 7 | 14 | / | 1 | / | / | / | 0.9 | -3 | /
CCC(=O)NCCNC(=O)c1c(SC)nsc1SC
 : -4 | -16 | / | 0 | / | / | / | -3.8 | -4 | /
COc1ccc2oc(C(=O)OCC(=O)Nc3ccccc3)c(C)c2c1
 : -5 | 5 | -1 | 3 | -5 | i | 0.9 | 5.3 | 5 | -2.8
COc1ccc(NC(=O)CCCN2C(=O)C3CC=CCC3C2=O)cc1 (centres undefined)
 : 4 | 2 | 5 | -1 | 4 | i | 0.0 | -0.9 | 3 | -1.1
Cc1ccc(NC(=O)CCC(=O)NNC(=O)c2ccccc2)c(C)c1
 : -10 | -7 | 9 | 0 | 12 | / | 2.2 | -3.3 | -6 | -1.0
O=C(OCC(=O)N1CCCc2ccccc21)c1ccc(Cl)nc1
 : 4 | -7 | -1 | -4 | -13 | i | -7.6 | 3.8 | 3 | 0.1
CC(C)CCn1c(CN2CCOCC2)nc2c1c(=O)n(C)c(=O)n2C
 : 6 | -5 | -1 | -2 | 5 | i | -7.7 | 0.1 | -5 | 1.4
O=C(NNC(=O)c1sccc1-n1cccc1)c1ccc(Cl)cc1
 : -16 | -13 | / | -1 | / | / | / | 1.7 | -8 | /
CCOC(=O)c1sc(C)c2c1NC1(CCCCCC1)NC2=O
 : 20 | -7 | / | 6 | / | / | / | 0.3 | -4 | /

# Part of the list above in order of length of the SMILES, low to high.
# Order of values: T cruzi inh | Calb FLC | rRNA inh HTS | Beta apoptosis | rRNA inh HTS OD600 | FGF22 binding | rRNA inh HTS RFP | RanGTP-Impb inh | ALR inh | MLL AF4-AF9 inh
CCC(=O)NCCNC(=O)c1c(SC)nsc1SC
 : -4 | -16 | / | 0 | / | / | / | -3.8 | -4 | /
O=C(NNC(=O)c1sccc1-n1cccc1)c1ccc(Cl)cc1
 : -16 | -13 | / | -1 | / | / | / | 1.7 | -8 | /
COc1ccc(NC(=O)CCCN2C(=O)C3CC=CCC3C2=O)cc1 (centres undefined)
 : 4 | 2 | 5 | -1 | 4 | i | 0.0 | -0.9 | 3 | -1.1

# Some of the compounds tested; rates above refer to the full screens.
